# Source: PubChem BioAssay (National Center for Advancing Translational Sciences (NCATS))
# NPR1 antag: blocks ANP-stimulated signaling of human Npr1 receptor; P16066; HEK293 hNpr1 GloSensor cGMP, ANP-stimulated luminescence; Potency, µM (doses to about 46.3 µM), for the others: at the top dose activity change, negative = inhibition, usual class: inhibitors; 76,000 compounds, 1.6% hits; AID 1347048; active = well fitted inhibition curve with a large enough effect; inconclusive = small, poorly fitted or top-dose-only effect; inactive = no such curve, though single readings can be large or run the other way;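 further: nearly all actives have a fitted effect of over 60% in size; nearly all hits also lower the signal before the agonist is added; a reference antagonist and vehicle were the controls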
# Target sequence (P16066 whole entry, looked up): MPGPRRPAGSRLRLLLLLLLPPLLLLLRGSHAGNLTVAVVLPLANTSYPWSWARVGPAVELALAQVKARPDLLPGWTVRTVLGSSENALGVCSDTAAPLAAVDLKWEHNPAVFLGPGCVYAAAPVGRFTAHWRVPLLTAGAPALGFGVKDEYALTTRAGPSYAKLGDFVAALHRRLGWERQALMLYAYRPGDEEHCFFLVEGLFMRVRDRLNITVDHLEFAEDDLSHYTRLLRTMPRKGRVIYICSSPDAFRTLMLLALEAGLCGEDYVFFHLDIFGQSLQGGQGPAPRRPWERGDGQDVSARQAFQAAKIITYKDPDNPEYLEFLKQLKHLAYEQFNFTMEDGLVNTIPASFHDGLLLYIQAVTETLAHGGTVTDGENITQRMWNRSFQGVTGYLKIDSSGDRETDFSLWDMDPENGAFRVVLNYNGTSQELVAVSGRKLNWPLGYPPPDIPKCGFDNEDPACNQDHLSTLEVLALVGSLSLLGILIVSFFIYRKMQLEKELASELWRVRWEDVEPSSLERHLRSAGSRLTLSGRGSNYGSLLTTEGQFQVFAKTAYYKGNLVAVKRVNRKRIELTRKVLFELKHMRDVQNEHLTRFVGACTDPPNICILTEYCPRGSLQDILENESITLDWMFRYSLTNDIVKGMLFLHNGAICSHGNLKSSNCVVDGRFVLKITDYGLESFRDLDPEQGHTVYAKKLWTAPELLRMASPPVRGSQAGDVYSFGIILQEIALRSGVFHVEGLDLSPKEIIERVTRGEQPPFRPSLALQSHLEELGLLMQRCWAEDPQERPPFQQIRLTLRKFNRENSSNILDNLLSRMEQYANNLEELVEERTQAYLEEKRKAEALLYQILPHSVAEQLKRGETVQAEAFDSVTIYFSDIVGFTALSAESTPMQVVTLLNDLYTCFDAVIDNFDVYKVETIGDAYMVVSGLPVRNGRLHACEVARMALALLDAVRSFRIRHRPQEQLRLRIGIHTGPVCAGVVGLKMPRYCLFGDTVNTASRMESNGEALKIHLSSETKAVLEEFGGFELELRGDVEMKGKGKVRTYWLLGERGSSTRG
#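 Compound pre-incubated 30 min at room temperature on GloSensor-loaded HEK293 cells stably carrying hNpr1 and the pGS-40F cGMP biosensor. Stimulation uses hNppA at 0.1 nM final; luminescence is taken at baseline and 20 min post-agonist.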
# The depositor's hits bear a star; ? = inconclusive; [ ] = another dose, or the depositor's remark. On the % scale 0 is the no-effect control and ±100 the full control effect; potency means the concentration at half of the fitted maximal effect. An excerpt; the hit share may differ from the screen's.
# A first look, 3 compounds:
item | Structure | NPR1 antag
1 | COc1ccc(-n2ncc(-c3c(-c4ccccc4)ncn3CCCO)c2C)cc1 | -4%
2 | O=C(c1cccnc1)N1CCN(c2nnc3ccc(Cl)cn23)CC1 | 5%
3 | CCc1nc2c(=O)n(CC(=O)NCc3ccc(SC)cc3)nc(C)c2s1 | 3%

# Main list, from the start:
item | Structure | NPR1 antag
1 | COc1ccc(-n2ncc(-c3c(-c4ccccc4)ncn3CCCO)c2C)cc1 | -4%
2 | O=C(c1cccnc1)N1CCN(c2nnc3ccc(Cl)cn23)CC1 | 5%
3 | CCc1nc2c(=O)n(CC(=O)NCc3ccc(SC)cc3)nc(C)c2s1 | 3%
4 | CCN(CC)C(=O)C[C@@H]1c2nc(NC(=O)c3cccc(F)c3)sc2C[C@@H]2[C@](C)(CO)[C@H](O)CC[C@]21C | 1%
5 | CC(=O)Nc1cccc(C(=O)N2CCC(n3cc(-c4nc(C(C)C)no4)nn3)C2)c1 (configuration not stated) | -17%
6 | Cc1cc(C)n(Cc2cc(C(=O)N(C)C(C)c3ccon3)n[nH]2)n1 (configuration not stated) | 0%
7 | CC(C)NC(=O)C[C@@H]1C[C@H]2O[C@H](CNC(=O)NCc3ccccc3)[C@@H](O)[C@H]2O1 | 1%[70.6 µM]
8 | Nc1nc(CCNC(=O)[C@H]2CNC[C@H](C(=O)N3CCOCC3)C2)cs1 | 0%
9 | COCc1nc(CCNC(=O)NC2CCCCC2)no1 | 2%
10 | O=C(C1CCC1)N1CCC(C(=O)N2CC(Oc3ccccc3)C2)CC1 | 6%
11 | Cn1cnc(CN2CCNc3cc(Nc4ccccc4)ncc3C2)c1 | 10%[70.6 µM]
12 | COc1cccc(N2CC(C(=O)NCCc3ccc(Cl)cc3)NC2=O)c1 (configuration not stated) | 10%
13 | CN(C)C(=O)CO[C@H]1CCOC[C@H]1NC(=O)c1ccc2n[nH]nc2c1 | 5%
14 | COc1cccc(CCNC(=O)c2c(C)noc2-c2ccc3c(c2)OCO3)c1 | -1%
15 | CCC(=O)N1CCC2(CC1)CC(N(Cc1ccccc1)C1CC1)CCO2 (configuration not stated) | -11%
16 | O=C(Cn1ccnc1)N1CCC(N2C(=O)C3(CCCCC3)C2c2ccncc2)CC1 (configuration not stated) | -2%
17 | COCc1cn([C@H]2CO[C@H]3[C@@H]2OC[C@@H]3N)nn1 | 4%[70.6 µM]
18 | O=C(NCc1ccc(F)cc1)[C@@H]1C[C@@H](c2cccc(C(F)(F)F)c2)N(CC2CCOCC2)C1 | 3%
19 | O=C(C1CCN(S(=O)(=O)N2CCOCC2)CC1)N1CCCC(c2nc(C3CCOCC3)no2)C1 (configuration not stated) | 23%
20 | COc1cccc(CC(=O)N2CCCOCCNC(=O)CC2)c1 | 0%
21 | CCC(C(=O)Nc1ccc2c(c1)CN(Cc1ccc(OC)cc1OC)C(=O)C(C)O2)c1ccccc1 (configuration not stated) | -10%
22 | CCN(CC)C(=O)[C@@H]1C[C@H](NC(=O)COc2cccc(F)c2)CN1C | 7%
23 | CCOCCn1c(=O)[nH]c2cc(C(=O)NCc3ccc(F)c(F)c3)ccc21 | 0%
24 | Cc1ccccc1-c1cn(C)c(=O)n2cc(COc3ccc(Cl)cc3)nc12 | -23%[70.6 µM]
25 | O=C1CCN(C(=O)c2ccccc2)CCCC(C(=O)N2CCc3ccccc32)CCN1 (configuration not stated) | 1%
26 | CO[C@@]1(C)C[C@@H](O)C12CCN(C(=O)CCCc1ccc(F)cc1)CC2 | -1%
27 | COCCc1noc(CNC(=O)C2COc3ccccc3C2)n1 (configuration not stated) | -3%
28 | C[C@@]1(O)CCN(CC2CCCCC2)C[C@H]1N1CCCC1 | 8%
29 | c1ccc(CN2C[C@@H]3C[C@H]2CN3Cc2cn(-c3ccccc3)nn2)cc1 | 6%
30 | COCCN(CC1CCN(Cc2ccccc2OC)CC1)C(=O)c1n[nH]c2c1CCC2 | -20%
31 | O=C(N[C@@H]1CN(Cc2ccc3c(c2)CCO3)C[C@H]1CO)c1cnccn1 | -5%
32 | O=C(NCC1Cn2cccc2CN1Cc1ccccc1)c1ccsc1 (configuration not stated) | 2%
33 | O=C1CCN(S(=O)(=O)c2ccccc2)CCCC(C(=O)NCCCN2CCOCC2)CCN1 (configuration not stated) | 5%
34 | O=C(Cc1ccc(F)cc1)N1CCC2(CC1)NC(=O)N(c1ccccc1Cl)N2 | -3%
35 | N#Cc1ccc(CN2CC(CNC(=O)Nc3ccccc3)C3(C2)CN(c2ccccc2)C3)cc1 (configuration not stated) | -5%
36 | O=C(COc1ccccc1)N1C[C@@H]2OCC(=O)N(Cc3ccc(F)cc3)[C@@H]2C1 | 2%[70.6 µM]
37 | CCCCc1ncc(CN(C)CC2CCCN(CCc3ccc(F)cc3)C2)[nH]1 (configuration not stated) | 2%
38 | O=C(NC[C@H]1O[C@@H](CC(=O)N2CCN(c3ccc(F)cc3)CC2)[C@H](O)[C@@H]1O)c1ccccc1 | 3%
39 | Cc1nc(-c2c3n(c(=O)n(CC(=O)Nc4ccc(F)c(Cl)c4)c2=O)CCCCC3)no1 | 1%
40 | COc1ccc(C(=O)N2CCN(c3cc(-c4cccs4)[nH]n3)CC2)c(OC)c1 | ?

# Random excerpt: 3 entries already listed.
item | Structure | NPR1 antag
33 | O=C1CCN(S(=O)(=O)c2ccccc2)CCCC(C(=O)NCCCN2CCOCC2)CCN1 (configuration not stated) | 5%
40 | COc1ccc(C(=O)N2CCN(c3cc(-c4cccs4)[nH]n3)CC2)c(OC)c1 | ?
39 | Cc1nc(-c2c3n(c(=O)n(CC(=O)Nc4ccc(F)c(Cl)c4)c2=O)CCCCC3)no1 | 1%

# Continuation.
item | Structure | NPR1 antag
41 | COC(=O)N1CCC2(CC1)CCN(Cc1cccs1)c1ccccc1O2 | 24%
42 | CN1CCC2(C1)CN(CC1CC1)c1ccc(C(=O)NCC3CC3)cc12 (configuration not stated) | -6%[70.6 µM]
43 | O=C(NC[C@H]1O[C@@H](CO)[C@@H](O)[C@H]1N1CCN(c2cccc(C(F)(F)F)c2)CC1)c1ccccc1 | 2%
44 | Cc1ccc(C2Cn3cnc(C(=O)N4CCC(C(=O)NCc5ccccc5Cl)CC4)c3CO2)cc1 (configuration not stated) | -6%
45 | CCCNC(=O)CCC1CCN(C(=O)c2ccc(C)cc2)CC1 | 2%
46 | CCN(CC)C(=O)C[C@@H]1CCNC[C@@H]1Cc1cc(-c2ccc(F)cc2)on1 | -1%[70.6 µM]
47 | CCN(CCCNC(=O)C1CCCCC(=O)N1C)c1ccccc1 (configuration not stated) | 1%
48 | C[C@H](C(=O)N1CCCC1)C1CC[C@@]2(C)Cc3sc(-c4ccccc4)nc3[C@@H](C)[C@@H]2[C@H]1O (some centres not stated) | ?
49 | Cn1cnc([S+](=O)([O-])N2CCN(C(=O)N3CC4CC(C3)[C@H]3CCCC(=O)N3C4)CC2)c1 (some centres not stated) | 2%
50 | COC(=O)[C@H]1CCCN1C(=O)[C@@H]1[C@@H](NC(=O)NC2CCCCC2)CCN1C(=O)c1cccn1C | -3%
51 | O=C(O)COc1ccc(-c2nccc3c2C(=O)N(Cc2c[nH]c4ccccc24)CC(COc2ccc(F)c(F)c2)O3)cc1 (configuration not stated) | 2%
52 | COc1c(C)cccc1-c1nc(C2CCOC2)no1 (configuration not stated) | 4%
53 | CC(=O)N1CCC(Cc2ccc(C(=O)N(C)Cc3cccnc3)cc2)CC1 | -16%
54 | Cc1ccc(S(=O)(=O)NC[C@H]2COCc3nc4cccnc4n32)cc1 | ?
55 | Cc1ccc(CN2CCC(n3cc[nH]c3=O)CC2)cc1 | 6%[70.6 µM]
56 | N#Cc1ccc([S+](=O)([O-])N2CCC3(CC2)OCCN(CC2CCOCC2)C3=O)cc1 | -23%[70.6 µM]
57 | O=C1CC2(CCN(Cc3ccsc3)CC2)Oc2ccccc2N1 | 18%[70.6 µM]
58 | CCOC(=O)C1(Cc2ccc(OC)cc2)CCN(C(=O)CCc2ccccc2OC)CC1 | ?
59 | Cc1ccc(CN2Cc3[nH]cnc3C[C@H]2C(=O)NCc2ccc(C(F)(F)F)cc2)cc1 | -18%[70.6 µM]
60 | COCCN1C(=O)[C@H]2CN(Cc3ccsc3)C[C@H]2C1=O | 5%
61 | O=C1NCCCCCN(C(=O)CCC2CCCC2)[C@H]2CCC[C@@H]12 | 2%
62 | Cc1cccc(CC(=O)N2C[C@@H](CO)[C@H](c3ccccn3)C2)c1 | -6%
63 | CCN(CC)C(=O)CCc1c(C)nn(-c2ccc(F)cc2)c1Oc1ccccc1OC | -20%
64 | Cc1nncn1C1CCN(S(=O)(=O)c2ccc(C(F)(F)F)cc2)CC1 | -2%

# Along the list, from the results shown:
# NPR1 antag for nos. 57 to 64 → 18%[70.6 µM], ?, -18%[70.6 µM], 5%, 2%, -6%, -20%, -2%

# Continued.
item | Structure | NPR1 antag
65 | CC(=O)Nc1ccc(CN2CCC3(CC2)CC(=O)c2ccc(Cl)cc2O3)cc1 | 12%
66 | O=C(NC1CC1)[C@@H]1CN(Cc2ccncc2F)C[C@H]1CO | -2%
67 | Cn1ccc(NC(=O)c2ccc3c(c2)C2(CCN(CC4CC4)C2)CN3Cc2ccccc2)n1 (configuration not stated) | -9%
68 | CCc1nc2c(=O)n(CC(=O)NCc3ccc(F)cc3Cl)nc(C)c2s1 | 6%
69 | CCC(=O)Nc1cccc(C2OC(=O)N(Cc3ccc(C)cc3)C2C(=O)NCC2CC2)c1 (configuration not stated) | 1%
70 | CC(C)NC(=O)N[C@H]1C[C@@H](c2nc(-c3ccc4c(c3)OCO4)no2)N(C)C1 | 3%[70.6 µM]
71 | COCC1CN(C(C)=O)CC12CCN(S(=O)(=O)c1cccc(C#N)c1)CC2 (configuration not stated) | 0%
72 | COc1ccc(C(N)CC(=O)N2CCC3(CC2)CN(C)C(=O)O3)cc1OC (configuration not stated) | 4%
73 | O=C(c1ccco1)N1CCC(O)(c2ccccc2)[C@H](N2CCCC2)C1 (some centres not stated) | 3%
74 | CC1=NOC2(CCN(Cc3ccc(C)cc3)CC2)C1 | 9%[70.6 µM]
75 | CCC1(N2CCN(S(=O)(=O)c3cc(F)cc(F)c3)CC2)CCN(C(=O)NC)C1 (configuration not stated) | 3%
76 | CC(C)CCN1CCC(N2CCN(S(=O)(=O)c3cc(F)cc(F)c3)CC2)C1=O (configuration not stated) | 0%
77 | COc1ccc(-c2nn(-c3ccccc3C)cc2CN(C)Cc2cn(C)nc2C)cc1F | 2%
78 | COC1CCN(C(=O)c2cnc3c(c2)N([S+](=O)([O-])c2cccnc2)CCC3)CC1 | 2%[70.6 µM]
79 | O=C1NC2(CCCN(C(=O)c3ccccc3F)C2)COc2ccccc21 (configuration not stated) | 13µM*
80 | CNC(=O)[C@@H]1C[C@H](Oc2cccnc2)CN1C(=O)c1nccc2ccccc12 | -2%
81 | CCOc1ccccc1CN1CCC2(CCN(C(=O)c3ccccc3)CC2)Oc2ccccc21 | -8%
82 | COc1ccc2c(c1)OCC(C(=O)NCc1csc(N3CCCC3)n1)C2 (configuration not stated) | 1%
83 | CN(Cc1ccccc1)C(=O)Cc1ccc(N(Cc2cccc(F)c2)C(=O)c2ccco2)cc1 | -20%
84 | COc1ccc(CNC(=O)N2CCCCC2c2n[nH]c(C)n2)cc1 (configuration not stated) | 1%
85 | CN(C)CC(=O)Nc1ccc(OC2CCN(C(=O)c3ccc(F)cc3)CC2)nc1 | 0%
86 | Cc1ccc(-c2cc(N3CCCN(C(=O)c4ccsc4)CC3)n[nH]2)cc1C | 1%
87 | Cc1ccc2nc(C3CCN(Cc4cccs4)CC3)[nH]c(=O)c2c1 | -1%[70.6 µM]
88 | CC(C)c1cc(N2C[C@H](O)[C@@H](N3CCCCC3)C2)n2nccc2n1 | 2%
89 | O=C(c1cccc(F)c1)N1CCC(Oc2ccccc2-c2nc(-c3ccncc3)no2)C1 (configuration not stated) | -3%

# Laid out differently: two of the compounds above.
no.	NPR1 antag	Structure
87	-1%[70.6 µM]	Cc1ccc2nc(C3CCN(Cc4cccs4)CC3)[nH]c(=O)c2c1
8	0%	Nc1nc(CCNC(=O)[C@H]2CNC[C@H](C(=O)N3CCOCC3)C2)cs1
